Arbovirus inh – antivirals against arbovirus infection, primary screen, cell-based, full library, 10K replicate subset; inhibition, % at 10 µM; arbovirus infection cell-based antiviral screen; hit rate 0.37% among 200,000; AID 1251, 2008;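 active = inhibition from about 30%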;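 also: bluetongue infection of BSR cells; cell survival read as ATP light after 72 h; 0% = infected wells without compound and 100% = uninfected wells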
YopH inh – YopH tyrosine phosphatase inhibitors, primary screen, biochemical, fluorescence Ex485/Em525 | AID 898, 2007 | YopH tyrosine phosphatase [Yersinia enterocolitica] | hit rate 0.16% among 140,000 | inhibition, %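 (about 10 µM by stock and volumes)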;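 active = inhibition of 50% or more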;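 also: controls were vehicle for no effect and minimum signal wells for full effect; inactives centre near -20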
Mtb betalactam – beta-lactam sensitization of Mtb H37Rv, H37Rv. inhibition, % at 25 µM. M. tuberculosis H37Rv growth with meropenem, percent inhibition; hits of this screen are not shown here. hit rate 0.27% among 330,000;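 active = about 74% or more and at least 40 points above the plate without the antibiotic, then above 30% in a dose series; inconclusive = first-round hits that could not be retested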;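 also: growth measured after seven days incubation then overnight dye step; 0% = bacteria only wells and 100% = bacteria with antibiotic; twin plates without the antibiotic show which effects depend on it; some results filed as inactive read as strong as hits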
RecA intein inh – Mtb RecA intein splicing inhibitors, primary screen, biochemical, fluorescence, HTS | Protein RecA (Mycobacterium tuberculosis (strain ATCC 25618 / H37Rv)), P9WHJ3 | cell-free RecA intein splicing | inhibition, %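 (about 9 µM by stock and volumes)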 | hit rate 0.75% among 290,000; in the data active = inhibition above about 30%; inconclusive = no clear call, values can overlap the other calls;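 also: 0% = vehicle wells and 100% = reference inhibitor control wells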
Target sequence (P9WHJ3 whole entry, looked up): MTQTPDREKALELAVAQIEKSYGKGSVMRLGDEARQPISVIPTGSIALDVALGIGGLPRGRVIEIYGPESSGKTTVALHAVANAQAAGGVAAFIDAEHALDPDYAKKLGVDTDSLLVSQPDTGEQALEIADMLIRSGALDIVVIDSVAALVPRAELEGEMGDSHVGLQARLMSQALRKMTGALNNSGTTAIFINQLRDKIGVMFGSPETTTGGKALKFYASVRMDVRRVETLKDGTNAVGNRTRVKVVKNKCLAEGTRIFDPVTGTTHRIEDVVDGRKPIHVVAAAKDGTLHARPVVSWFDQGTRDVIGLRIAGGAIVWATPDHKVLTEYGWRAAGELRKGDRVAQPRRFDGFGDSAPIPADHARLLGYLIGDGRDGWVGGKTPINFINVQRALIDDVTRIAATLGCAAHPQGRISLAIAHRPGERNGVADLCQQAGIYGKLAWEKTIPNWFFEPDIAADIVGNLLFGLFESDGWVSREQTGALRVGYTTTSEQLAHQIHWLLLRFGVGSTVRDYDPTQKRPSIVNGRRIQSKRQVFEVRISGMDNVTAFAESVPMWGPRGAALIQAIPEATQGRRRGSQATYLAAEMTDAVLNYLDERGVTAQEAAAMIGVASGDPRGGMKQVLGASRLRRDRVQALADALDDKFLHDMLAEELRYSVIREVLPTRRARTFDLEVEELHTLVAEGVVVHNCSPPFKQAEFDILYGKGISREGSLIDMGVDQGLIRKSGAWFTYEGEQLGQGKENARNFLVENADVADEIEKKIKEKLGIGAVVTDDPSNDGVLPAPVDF
Mtb growth – M. tuberculosis H37Rv growth inhibitors, H37Rv strain (AID 1626) | hit rate 0.95% among 220,000 | one-dose inhibition, % at 10 µM; IC50 in µM for titrated hits | M. tuberculosis H37Rv growth inhibition; higher % means a stronger effect;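 active = confirmed in a dose series; inconclusive = inhibition above 80% but not taken into the dose series; inactive = below 80% or under 30% at every dose of the series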;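 also: bacteria incubated seven days before Alamar blue readout; 0% = bacteria only wells and 100% = bacteria with antibiotic wells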
Arbovirus inh repeat – second read-out of Arbovirus inh, no call of its own (marks repeat the call); inhibition, %; measured here: 10K subset replicate screen; many hits read low in the repeat;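 first of two repeat runs on a subset; 0% = infected and 100% = uninfected wells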
The depositor's hits bear a star; ? = inconclusive; . = not tested or not shown; & = joins results of further samples. Not all compounds are listed; rates above refer to the full screens.

The opening four compounds as a preview:
SMILES	Arbovirus inh	YopH inh	Mtb betalactam	RecA intein inh	Mtb growth	others
O=c1[nH]c2cc(Cl)ccc2n1-c1ccccc1	0	-48	-4	0.1	-2%
COc1ccc(C(=O)NCc2ccc3c(c2)OCO3)cc1S(=O)(=O)NCc1ccc(Cl)cc1	0	-28	3	-0.2	-3%
O=[N+]([O-])c1ccccc1S(=O)(=O)N1CCc2ccccc2C1	4	.	-10	-1.8	4%
CCN(CC)CCCN(C(=O)c1ccc(OC)cc1)c1nc(-c2ccc(OC)cc2)cs1	.	.	11	3.2	.

All compounds of this part (from the top)
SMILES	Arbovirus inh	YopH inh	Mtb betalactam	RecA intein inh	Mtb growth	others
O=c1[nH]c2cc(Cl)ccc2n1-c1ccccc1	0	-48	-4	0.1	-2%
COc1ccc(C(=O)NCc2ccc3c(c2)OCO3)cc1S(=O)(=O)NCc1ccc(Cl)cc1	0	-28	3	-0.2	-3%
O=[N+]([O-])c1ccccc1S(=O)(=O)N1CCc2ccccc2C1	4	.	-10	-1.8	4%
CCN(CC)CCCN(C(=O)c1ccc(OC)cc1)c1nc(-c2ccc(OC)cc2)cs1	.	.	11	3.2	.
O=C(c1ccc(F)cc1)C1CCN(CCn2c(=S)[nH]c3ccccc3c2=O)CC1	6	.	-7	0.3	5%&11%
CCc1ccc(CCC(=O)Nc2ccc(C(=O)O)cc2)o1	.	.	-8	-1.5	.
O=C(N/N=C/c1cccc([N+](=O)[O-])c1)c1cc[n+](CCO)cc1	.	.	-14	3.8	.
FC(F)(F)c1cccc(-n2c(Cn3nnc4ccccc43)n[nH]c2=S)c1	.	.	-5	5.9	-1%
CCOC(=O)COc1c(C(=O)OC)sc2ncccc12	5	.	7	-0.8	0%
COC(CNC(=O)C(=O)NCC1CCCN1S(=O)(=O)c1cccs1)OC (stereo not given)	.	.	-10	-1.0	.
Cc1ccc(C)c(-n2c(Cc3cc(=O)[nH]c(=O)[nH]3)nnc2SC(C)C)c1	-1	3	2	.	-17%	Arbovirus inh repeat=8
S=c1nc(C23CC4CC(CC(C4)C2)C3)[nH][nH]1	.	.	5	1.6	8%
O=C1CN(C(=O)C2CC2)c2ccccc2N1	1	-54	11	-0.7	-7%
Cc1c(-c2ccc(OCc3ccccc3)cc2)nc2ccccc2c1C(=O)O	.	.	?	3.8	.
Cc1ccc(NC(=O)CC(C)CC(=O)NCc2ccccc2)cc1Cl (stereo not given)	.	.	24	-0.9	.
C/C(=N\O)C(C)/[N+]([O-])=C/c1nc(C)c(C)n1O (stereo not given)	.	-32	-4	-3.3	-3%
CC(=O)Nc1ccc(CN(C)CC2CCCN(CCc3cccc(C(F)(F)F)c3)C2)cc1 (stereo not given)	.	.	-1	1.2	.
COc1ccccc1/C=C/C=N/NC(=O)CCn1cnc2ccccc21	.	.	-5	1.5	2%
COC(=O)C1=C(c2ccc(S(C)(=O)=O)cc2)C[C@@H]2CC[C@H]1N2C(=O)NC(C)C	.	.	0	-0.4	-10%
CCC(=O)N(Cc1cc2c(C)ccc(C)c2[nH]c1=O)C1CCCCC1	-1	-12	-21	1.7	1%

Reprinted at random: 5 records from the list, in no set order.
SMILES	Arbovirus inh	YopH inh	Mtb betalactam	RecA intein inh	Mtb growth	others
COC(CNC(=O)C(=O)NCC1CCCN1S(=O)(=O)c1cccs1)OC (stereo not given)	.	.	-10	-1.0	.
C/C(=N\O)C(C)/[N+]([O-])=C/c1nc(C)c(C)n1O (stereo not given)	.	-32	-4	-3.3	-3%
O=C(N/N=C/c1cccc([N+](=O)[O-])c1)c1cc[n+](CCO)cc1	.	.	-14	3.8	.
O=C(c1ccc(F)cc1)C1CCN(CCn2c(=S)[nH]c3ccccc3c2=O)CC1	6	.	-7	0.3	5%&11%
O=C1CN(C(=O)C2CC2)c2ccccc2N1	1	-54	11	-0.7	-7%

More structures.
SMILES	Arbovirus inh	YopH inh	Mtb betalactam	RecA intein inh	Mtb growth	others
COC(=O)C[C@H]1c2ccccc2S(=O)(=O)N1C(C)C	.	.	-6	-3.4	-1%
O.O.O.O=S(=O)([O-])OC[C@H]1O[C@@H](O[C@]2(COS(=O)(=O)[O-])O[C@H](OS(=O)(=O)[O-])[C@@H](OS(=O)(=O)[O-])[C@@H]2OS(=O)(=O)[O-])[C@H](OS(=O)(=O)[O-])[C@@H](OS(=O)(=O)[O-])[C@@H]1OS(=O)(=O)[O-].[Al]	-3	-34	.	.	-9%
CC(C)(C)c1ccccc1NC(=O)COC(=O)CN1C(=O)NC2(CCCC2)C1=O	.	.	-4	-4.4	.
CCC(=O)Nc1ccccc1C(=O)OCC(=O)c1ccccc1	-5	-51	18	1.7	-7%
CC(=O)CSc1nnc(CN2C(=O)CSc3ccc(C(F)(F)F)cc32)n1C	.	.	2	-0.9	-6%
CSc1ccc(C#N)cc1NC(=O)c1ccccc1	-1	.	0	.	7%
Cc1ccc(S(=O)(=O)N2CCN(C(=O)CCCOc3ccc(Cl)cc3C)CC2)cc1	.	.	-2	6.5	.
CCCCc1cc(=O)oc2cc(C)cc(OC(C)C(=O)NCc3ccccn3)c12 (stereo not given)	.	.	3	-2.2	.
Cc1ccc(C)c(N2CCN(S(=O)(=O)c3ccc4c(c3)NC(=O)CC(=O)N4)CC2)c1	.	.	-5	4.9	.
Cn1c(=O)c2c(nc(CN3CCC(C(N)=O)CC3)n2Cc2c(F)cccc2Cl)n(C)c1=O	-2	-32	-2	.	1%
Cc1c(-c2cc[n+]([O-])cc2)oc2ccc(Br)cc2c1=O	5	.	3	0.3	5%
Cn1c(N)c(Sc2ccc([N+](=O)[O-])cc2)c(=O)n(C)c1=O	.	.	1	0.0	.
O=C(NCc1ccccc1)c1ccc(N2CCC3(CC2)CC(c2ccccc2)=NO3)c([N+](=O)[O-])c1	.	.	3	1.2	.
CC1=NNC(=O)/C1=C\c1cn(-c2ccccc2)nc1-c1ccc(Cl)cc1	-32	-33	100	90*	?
COc1cc(NC(=O)c2cc([N+](=O)[O-])ccc2NC(=O)CNCc2ccccn2)cc(OC)c1	.	.	8	1.1	.
CCCCc1ccc(S(=O)(=O)N2CCC3(CC2)OCCO3)cc1	.	.	-8	2.7	.
O=C1NC(=NCc2ccccc2)S/C1=C\c1ccccc1	-1	-26	-3	1.1	5%
CCOC(=O)N1CCN(C(=O)CSCC(=O)Nc2nc(-c3ccc(Cl)s3)cs2)CC1	4	-29	?	-1.1	17%
CC(C)[C@H](NC(=O)c1ccccc1Cl)C(=O)OCC(=O)NC(=O)NC1CCCC1	.	.	1	2.8	.
O=C(CSC1=NCCS1)N1CCN(c2ccc(Cl)cc2)CC1	-3	2	6	26	8%
CCCS(=O)(=O)N1CCCC(C(=O)NCCc2cccc(C)c2)C1 (stereo not given)	.	.	-8	-2.5	.
CCOC(=O)c1ccc(NC(=O)C2CCCO2)cc1 (stereo not given)	2	0	92	1.1	?
Cn1c(N)c(C(=O)COC(=O)COc2ccccc2C#N)c(=O)n(C)c1=O	8	.	0	0.1	-6%
CCN1C(=O)C(=Cc2ccc(C)s2)C(=O)N(CC)C1=S	0	-28	16	-3.0	0%
CCCCN1CNC(=S)N(c2ccc(C(=O)OCC)cc2)C1	-3	-20	81	-3.6	6%
O=C(Cn1cnc([N+](=O)[O-])c1)Nc1cc(Oc2ccc(Cl)cc2Cl)cc([N+](=O)[O-])c1	-34	-23	98	14	26%
N#Cc1cnn2c(N)c(-c3ccc(Cl)cc3)cnc12	-5	.	-4	-1.1	-3%
CN(C(=O)COC(=O)CNC(=O)c1sc2ccccc2c1Cl)c1ccccc1	5	-24	-1	-2.9	0%
CC(=O)Nc1ccc(S(=O)(=O)NC(CC(=O)NCCC2=CCCCC2)C(C)C)cc1 (stereo not given)	-2	-13	-10	3.1	4%
Nc1cc(-c2ccco2)no1	-5	-42	-3	8.0	-6%
Cn1c(N2CCOCC2)cc(=O)n(C)c1=O	3	.	-7	-2.6	-3%
COc1ccc(CNCc2c(F)cccc2F)cc1OC	.	.	-1	1.7	.
O=C1NC2(CCCCCC2)C(=O)N1CCS(=O)(=O)Oc1ccccc1	5	.	-5	0.5	2%
COc1cc(NC(=O)CN2CCN(c3ccccc3F)CC2)c(C)cc1[N+](=O)[O-]	6	-19	5	-0.9	-1%
CCOC(=O)c1ccccc1NC(=O)COC(=O)CCC(=O)c1ccccc1	.	.	-8	2.0	.
O=C(CNc1cccc2ccccc12)c1ccc([N+](=O)[O-])cc1	-6	13	95	5.8	-3%
COc1ccc(CCNC(C)C(=O)Nc2ccc(S(N)(=O)=O)cc2)cc1 (stereo not given)	.	.	3	0.1	.
COC(=O)c1ccc(C(=O)OC)c(NC(=S)N2CCN(C(=O)C3CCCO3)CC2)c1 (stereo not given)	.	.	-8	.	-1%
Cc1cc(Br)cc(C)c1OCCCCN(C)C	-21	-29	54	-0.6	7%
COC(=O)c1c(C)nn(-c2ccc(F)c(Cl)c2)c1-c1cc(C)on1	.	.	2	1.6	0%
COc1ccc(CCNS(=O)(=O)c2ccc(N3CCCC3=O)cc2)cc1	19	-14	1	0.4	-5%
COc1ccc(-c2nc3n(n2)C(c2cccnc2)C(C(N)=O)=C(C)N3)cc1 (stereo not given)	-4	-36	-5	-0.1	1%
O=C(N/N=C/c1ccccc1Br)c1ccc(CSc2cccc3cccnc23)cc1	-11	0	-11	0.9	-2%
C[C@H](NC(=O)NCCc1ccccc1)C(=O)O	-2	-35	11	0.1	-3%
Cc1cc(C)n(-c2ccc(C(=O)Nc3cc(S(=O)(=O)N(C)C)ccc3Cl)cc2)n1	-4	-26	3	2.6	-6%
CCCCNC(=O)CCCCCn1c(=O)[nH]c2cc(C(=O)OC)ccc2c1=O	5	.	-8	1.8	-4%
Cc1c(C(=O)Nc2ccc(Br)cc2)cnn1C	1	-28	5	3.4	68%
Cc1cccc2c1OCC/C2=N\NC(=O)COc1ccccc1Cl	3	-9	-3	2.9	-8%
COCCNc1nc(SCc2ccccc2)nc2sc3c(c12)CCC3	3	1	43	-1.7	5%
COc1ccc(CN2C(=O)c3cccnc3C2=O)cc1S(=O)(=O)NC1CCCCC1	.	.	-11	-2.5	.
Continuation.
SMILES	Arbovirus inh	YopH inh	Mtb betalactam	RecA intein inh	Mtb growth	others
CCOC(=O)C1=C(CS(=O)(=O)c2ccccc2)NC(=O)NC1c1ccc(OC)c(OC)c1 (stereo not given)	.	.	-5	-0.2	-3%
COc1ccc(-n2c(CNCCc3ccc(C)cc3)nc3ccccc3c2=O)cc1	.	.	23	1.1	.
COc1ccc(CCNC(=O)CCC2COc3ccccc3O2)cc1OC (stereo not given)	9	12	-1	0.8	-2%
CN(C(=O)CC(NC(=O)c1ccccc1Cl)c1ccccc1)c1ccccc1 (stereo not given)	.	.	-3	4.5	.
CNC(=S)N1CCN(CCNC2=CC(=O)CC(C)(C)C2)CC1	5	.	8	1.6	-2%
COc1ccccc1OC(=O)CN1C(=O)c2ccccc2C1=O	14	-19	-5	1.2	-2%
CC(C)(C)C(=O)CSc1nnc(-c2cccs2)n1CC1CCCO1 (stereo not given)	3	-6	-9	-0.3	1%
C/C(=N\O)C1CCCCC1	.	.	-8	0.5	-1%
CC1(C)c2[nH]c3ccccc3c2C[C@@H]2C(=O)N(Cc3ccco3)C(=O)N21	.	.	42	-11	2%
CCCc1nc(-c2cc3ccc(C)cc3[nH]c2=O)no1	6	1	-9	1.1	0%
Cc1ccc(CS(=O)Cc2ccc(C(=O)N3CCN(c4ccccc4)CC3)o2)cc1 (stereo not given)	.	.	3	1.1	.
Cc1cccc(N2C(=O)CC(Sc3nc(C)c4c(n3)CCCC4)C2=O)c1 (stereo not given)	2	-121	-12	-2.6	-4%
NNC(=O)c1ccc2[nH]c3c(c2c1)CCCC3	-5	.	6	-52	9%
COC(=O)CSCC(=O)Nc1nnc(-c2cccc(C)c2)s1	2	.	94	5.4	?
COc1ccc(/C=C/C(=O)N2CCN(c3ccccn3)CC2)cc1	.	.	5	-1.3	.
CC(=O)OCCCN1C(=O)c2cccc3cc(Br)cc(c23)C1=O	.	.	5	-3.9	.
CC1CC(=O)N(CC(=O)NCc2ccccc2)c2ccccc2S1(=O)=O (stereo not given)	.	.	-1	-0.7	.
Cc1cc(-c2ccccc2)nc(N2CCC(C(=O)NCc3ccccc3Cl)CC2)n1	-3	-14	.	2.7	0%
CC1=C(C#N)C(Nc2ccc(Cl)cn2)(C(F)(F)F)C(=O)N1 (stereo not given)	-1	-22	3	6.5	-10%
CNc1nc2c(N)ncnc2n1[C@H]1O[C@@H](CO)[C@H](O)[C@@H]1O	.	.	0	-1.3	.
Cc1ccc(/C=N/n2c(C3CCCCC3)n[nH]c2=S)cc1	.	.	?	0.0	.

High-throughput results as filed in PubChem.
